TRPML1 agonist: agonists of human TRPML1 channel; AID 624414; Q9GZU1; TRPML1-expressing cells, Ca2+ dye fluorescence, FDSS; host cell line not named in the record; reference of the full effect not given here; activation, % (no concentration beside the values); 0.12% of 410,000 active; in the data active = activation above about 50%; inconclusive = about 30% to 50%; inactive = below about 30%; note: 0% is about no effect; the text of the record puts the active cut at 80%
Target sequence (Q9GZU1 whole entry, looked up): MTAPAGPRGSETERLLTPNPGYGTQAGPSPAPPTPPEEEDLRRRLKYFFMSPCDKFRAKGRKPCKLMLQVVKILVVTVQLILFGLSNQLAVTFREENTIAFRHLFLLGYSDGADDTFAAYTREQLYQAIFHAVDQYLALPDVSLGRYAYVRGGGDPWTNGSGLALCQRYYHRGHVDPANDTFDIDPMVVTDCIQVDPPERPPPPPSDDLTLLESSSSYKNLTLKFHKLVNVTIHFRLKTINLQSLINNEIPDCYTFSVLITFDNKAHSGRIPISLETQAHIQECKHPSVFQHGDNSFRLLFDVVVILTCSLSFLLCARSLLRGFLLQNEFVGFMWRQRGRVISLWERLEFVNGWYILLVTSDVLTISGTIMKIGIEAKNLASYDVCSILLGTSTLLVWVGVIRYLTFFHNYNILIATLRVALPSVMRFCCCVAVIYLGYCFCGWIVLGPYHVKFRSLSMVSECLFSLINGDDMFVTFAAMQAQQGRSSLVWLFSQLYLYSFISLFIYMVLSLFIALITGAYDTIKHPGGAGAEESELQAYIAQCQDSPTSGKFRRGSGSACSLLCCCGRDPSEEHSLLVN
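Calcium fluorescence on an FDSS kinetic reader gave the read-out. Tet-induced TRPML1-DL cells were plated overnight, dye-loaded (Ca8 with quencher, 45-90 min, room temperature, dark), then read 110 s after compound addition, and again 110 s after 4uM final 54-4 (EC80).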
PINK1 expr mod: changes PINK1 expression; AID 624263; PINK1 immunofluorescence, high-content cytometry, 24 h; 0.2% of 410,000 active; Potency, µM (top dose mostly 76.6 µM), for the others: top-dose activation (PINK1 increase), hits mostly activators; active = well fitted activation curve with a large enough effect; inconclusive = small, poorly fitted or top-dose-only effect; inactive = flat fitted curve, though single readings scatter; cell line not stated here;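 note: potency is the fitted concentration of half-maximal effect; % of control where 0% means no effect; nearly all actives have a fitted effect of over 65% in size; a mitochondrial uncoupler was the plate control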
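Cells are seeded, rested 12 hours, then given compound at five concentrations or DMSO for 24 hours. After fixation, blocking and antibody staining, PINK1 amount and mitochondrial localization are scored; CCCP serves as control.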
TRPML1 inh: human mucolipin-1 channel inhibition | 0.02% of 390,000 active | AID 624415 | activity change, negative = inhibition, % (test concentration not listed) | TRPML1-inducible cells, Ca2+ dye fluorescence, FDSS; active compounds read low; inhibition of EC80 agonist-evoked calcium signal; in the data active means activity change below about -50%; inconclusive means about -30% to -50%; inactive means above about -30%;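 note: stimulus is agonist 54-4 at its EC80 concentration; % is set by controls: 0 for no effect and ±100 for the full control effect; compound concentration not given in the record; the text of the record puts the active cut at -80%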
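Tet-induced TRPML1-DL cells loaded with Ca8 no-wash calcium dye were read kinetically on FDSS. Compound addition was followed by EC80 agonist 54-4 (4 uM final); inhibition was read over 110 s.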
ClpP mod: qHTS Assay for Activators of ClpP. ATP-dependent Clp protease proteolytic subunit (Bacillus subtilis (strain 168)), P80244. purified B. subtilis ClpP, FRET peptide cleavage, 20 min. Potency, µM (titrated, usually from 57.5 µM), for inactives: top-dose activity change, negative = active. 1.9% of 340,000 active; active = well fitted falling curve with a large enough effect; inconclusive = small, poorly fitted or top-dose-only effect; inactive = no such curve, though single readings can be large or run the other way; note: potency is the fitted concentration of half-maximal effect; the source files actives as falling curves though it sought activators and does not explain the sign; nearly all actives have a fitted effect of over 65% in size; many hits overshoot -100%
Target sequence (P80244 whole entry, looked up): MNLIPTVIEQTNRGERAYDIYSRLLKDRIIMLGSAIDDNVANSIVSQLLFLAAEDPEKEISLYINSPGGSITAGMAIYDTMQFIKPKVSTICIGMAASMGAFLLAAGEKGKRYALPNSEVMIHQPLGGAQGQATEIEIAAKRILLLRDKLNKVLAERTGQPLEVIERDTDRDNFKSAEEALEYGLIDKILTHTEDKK
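FRET quenching reversal measured ClpP activation: 10 microg/mL B. subtilis ClpP at pH 8 with the FRET-FV decapeptide, read at 430 nm after 320 nm excitation. The 20-min minus 0-min signal was scaled between DMSO/no-enzyme wells and ADEP (5.8 microM final).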
Sfp PPTase inh: Sfp phosphopantetheinyl transferase inhibition; Potency, µM, inactives show max response, negative = inhibition, most hits filed as inhibitors; Biochemical Sfp PPTase activity, qHTS; 3.5% of 310,000 active; AID 1490; Q9F4F7; active = well fitted inhibition curve with a large enough effect; inconclusive = small, poorly fitted or top-dose-only effect, or another doubt; inactive = no such curve, though single readings can be large or run the other way;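 note: the enzyme is Sfp with the accession as filed and its product quenches rhodamine fluorescence; potency is the fitted concentration of half-maximal effect; 0% = enzyme reaction without inhibitor and -100% = no enzyme wells; top concentration of the series not given in the record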
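Fluorescence-quenching assay: 15 nM Sfp-PPTase preincubated 15 min at room temperature with compound, then 5 uM rhodamine-CoA and 12.5 uM BHQ-2-labelled YbbR peptide added. Fluorescence (ex 525/em 598 nm) read at start and after 30 min; difference gives rate.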
TRPV1 PAM: potentiators of human vanilloid receptor 1 (TRPV1); TRPV1-expressing cells, Fluo-8 calcium influx, capsaicin EC20 potentiation; host cell line not named in the record; control for the full effect not named in the record; potentiation, % at 8.33 µM; 0.02% of 320,000 active; Q8NER1; active means potentiation above 80%; inconclusive means 30% to 80%; inactive means below 30%; note: 0% is about no effect
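Fluo-8 calcium influx in TRPV1-expressing cells, kinetic read (ex 480/em 520 nm). Compound added and read 3 min for agonist activity, followed by capsaicin at EC20 final and 2 min further read for enhancement.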
Menin MLL FP FL: menin-MLL binding inhibition, fluorescein peptide | Fluorescence polarization, fluorescein-MLL peptide displacement from menin | FP activity change, % at 61.4 µM | 290,000 tested, under 10 active | AID 1766; inconclusive = falling polarisation curve, or a change in total fluorescence; inactive = total fluorescence flat and polarisation flat or rising; no compound was filed as active; the % refers to the polarisation; negative = inhibition;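 note: % of control where 0% means no effect; inhibitors lower the polarisation; unlabelled MLL peptide was the positive control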
Starred values were filed as active, the others as inactive; u = inconclusive; x = not tested or not shown; & = joins results of further samples; [ ] = another dose, or the depositor's remark. The order is random; 4.4% or so of the library scored in one or more.

SMILES	TRPML1 agonist	PINK1 expr mod	TRPML1 inh	ClpP mod	Sfp PPTase inh	TRPV1 PAM	Menin MLL FP FL
Cc1ccc(-c2cc(C(=O)NCCc3ccc(S(N)(=O)=O)cc3)c3ccccc3n2)cc1	1.5	0.4%	23	3.7%	u	5	0.2
CCn1cc(C(=O)O)c(=O)c2cnc(N3CCN(C(=S)NC(=O)c4ccccc4)CC3)nc21	-0.6	0.8%	-5	x	-20%	1	4.1
CN1CCCN(S(=O)(=O)c2ccc(O)c(C(=O)O)c2)CC1	x	0.4%	x	3.7%	9%	-5	-0.8
COCCn1c(=N)c(C(=O)NC(C)c2ccccc2)cc2c(=O)n3cc(C)ccc3nc21 (configuration not stated)	-0.4	6.8%	3	3.7%	x	x	x
COc1ccccc1NC(=O)CCn1cccc1	-0.6	-1.1%	1	-0.4%	10%	7	4.9
COc1ccc(-c2cc3nc(C)cc(N)n3n2)cc1	2.3	0.3%	-12	-5.1%	5%	6	3.5
COc1ccccc1NC(=O)CCCNC(=O)Cn1cnc2sc(C)c(C)c2c1=O	-0.7	2.9%	-4	28µM*	5%	1	7.0
O=C(COc1ccccc1F)NC12CC3CC(CC(C3)C1)C2	x	4.1%	x	-1.3%	11%	-19	-3.5
O=C(CSc1nc2ccccc2nc1Cc1ccc(Cl)cc1)NCCc1ccccc1	-0.4	1.2%	12	-3.0%	x	x	x
Nc1cc(N)nc(SCC(=O)NNC(=O)Cc2ccccc2)n1	0.1	-0.3%	-1	x	-19%	0	-1.7
CN(C(=O)CSc1nnc(COc2ccccc2)o1)c1ccccc1	1.7	0.1%	-19	-2.5%	x	x	x
COCCNS(=O)(=O)c1cc(OC)c(Cl)cc1Cl	x	x	x	x	6%	8	6.9
COc1ccccc1NS(=O)(=O)c1cccc(C(=O)OCc2nc3ccccc3s2)c1	2.7	3.8%	67	-1.6%	6%	17	6.4
OC(CNCc1ccccc1)(c1ccccc1)c1ccccc1	2.3	4.9%	35	-1.8%	1%	-4	1.8
O=C1CSC(c2ccc([N+](=O)[O-])cc2)N1Cc1ccccc1 (configuration not stated)	1.0	-0.2%	-16	0.7%	13%	-14	-2.9
CC(C)(C)C(=O)N1CCN(c2ncccc2C(F)(F)F)CC1	0.8	-1.3%	-19	-3.1%	14%	-1	1.8
Cc1[nH]c2ccccc2c1C(=O)CN1CCSCC1	-1.2	0.5%	-10	-0.1%	1%	-5	-0.6
Cc1cc(C(=O)CSc2nc(N)cc(=O)[nH]2)c(C)n1Cc1ccco1	x	2.1%	x	-0.7%	-4%	-2	-2.0
CCOC(=O)C1(CCOc2ccccc2)CCN(Cc2cccc(F)c2)CC1	2.2	u	-9	-3.4%	10%	-5	0.7
N#Cc1c(Nc2cccc(F)c2)sc2c(O)cc(=O)[nH]c12	0.1	0.1%	5	x	0%	-1	u
CN(C(=O)CSc1nnc(C(F)(F)F)n1N)C1CCS(=O)(=O)C1 (configuration not stated)	-0.5	2.0%	21	0.4%	11%	-5	3.7
CC(OC(=O)C(C)Oc1ccccc1)C(=O)Nc1ccc(S(=O)(=O)N2CCCCC2)cc1 (configuration not stated)	3.2	2.3%	-21	-2.1%	x	3	x
O=C(C1CCCO1)N1CCN(C(c2ccccc2)c2ccccc2)CC1 (configuration not stated)	-0.3	-0.9%[38.3 µM]	73	0.1%	-6%	-41	1.4
CCc1ccc(NC(=O)C(C)n2nc(C)c([N+](=O)[O-])c2C)cc1 (configuration not stated)	0.8	4.8%	-16	1.4%	17%	-2	4.2
COc1ccc(-c2nnc3c4ccccc4c(C)nn23)cc1	-0.1	-0.7%[38.3 µM]	3	0.3%	21%	6	-1.3
O=C(N/N=C/c1ccco1)c1ccncc1	-0.1	0.5%[38.3 µM]	-10	0.2%	-67%	18	0.1
Cn1nc(-c2ccccc2)c(-c2nc(-c3cccc(C(F)(F)F)c3)no2)c1Cl	-0.7	12%	0	-0.8%	3%	4	0.5
Cc1cnc(C(=O)Nc2nnc(C3CC3)s2)cn1	0.4	x	-4	-1.1%	u	-11	11
COc1ccc(OCC(O)CNC(=O)Nc2ccc(C(C)(C)C)cc2)cc1 (configuration not stated)	1.3	4.5%	7	-3.0%	10%	x	1.4
COc1cccc(NC(=S)NCc2ccccc2)c1	-0.7	7.3%	-7	0.2%	4%	-18	-3.2
Cc1ccc(-c2nnn(CC(=O)Nc3nnc(C(C)C)s3)n2)cc1	1.4	-0.1%	7	x	-3%	u	1.2
NC(=O)c1nnn(-c2ccccc2)c1N	0.3	2.3%	0	x	15%	11	-1.2
Cc1ccccc1OCC(=O)Nc1ccccc1C(=O)NC1CC1	-0.8	8.8%	3	8.9%	x	25	x
COc1ccc(CCNC(=O)CSc2nnc(CNc3ccc(Cl)cc3)o2)cc1OC	-0.8	7.6%[38.3 µM]	7	0.1%	-5%	-1	2.3
CC(C)(C)c1ccc(S(=O)(=O)Nc2ccc(C(O)(C(F)(F)F)C(F)(F)F)cc2)cc1	1.1	2.8%	-17	-0.4%	x	x	x
CC1(C)Oc2ccc(NC(=O)C3COc4ccccc4O3)cc2O1 (configuration not stated)	-0.4	2.5%	-18	-0.3%	-7%	8	1.8
O=C(CSc1nc2c(cnn2-c2ccccc2)c(=O)[nH]1)N1CCCCC1	0.2	0.7%	16	-1.9%	22%	4	-1.2
O=C(CNC(=O)/C(=C\c1ccc(F)cc1)NC(=O)c1ccccc1)OCc1ccccc1	-0.9	4.3%	-2	0.1%	10%	-1	0.3
COc1ccc(NS(=O)(=O)c2cccc(C(=O)NN=C(C)c3ccco3)c2)cc1	0.2	7.8%	5	-3.4%	x	x	x
CCOC(=O)N1CCN(C(=O)CN(c2ccc(Oc3ccccc3)cc2)S(C)(=O)=O)CC1	1.2	-1.5%	1	0.2%	-1%	4	-0.8

Only TRPML1 inh, PINK1 expr mod and TRPV1 PAM (two entries from above):
mol,TRPML1 inh,PINK1 expr mod,TRPV1 PAM
COc1cccc(NC(=S)NCc2ccccc2)c1,-7,7.3%,-18
Cc1ccc(-c2nnn(CC(=O)Nc3nnc(C(C)C)s3)n2)cc1,7,-0.1%,u

Carrying on.
SMILES	TRPML1 agonist	PINK1 expr mod	TRPML1 inh	ClpP mod	Sfp PPTase inh	TRPV1 PAM	Menin MLL FP FL
CCC(CC)NC(=O)COC(=O)CCC(=O)c1ccc(Cl)cc1	-1.8	-0.7%	-1	0.2%	10%	-6	-4.8
COc1ccc(CCNC(=O)CN(c2ccccc2)S(=O)(=O)c2ccccc2)cc1	-0.6	2.6%	-19	-0.4%	x	x	x
O=C(CCl)Nc1ccccc1Sc1ccccc1	-0.2	-1.6%	32	-3.0%	-17%	-4	1.4
CN(C)N1C(N)=C(C#N)C(c2ccsc2)C2=C1CCCC2=O (configuration not stated)	-0.2	2.1%	-12	-2.1%	1%	-9	6.8
O=C(C1c2ccccc2C(=O)N2CCc3ccccc3C12)N1CCN(Cc2ccccc2)CC1 (configuration not stated)	0.7	-5.5%	2	-1.6%	15%	-5	0.6
COc1ccc(NC(=O)CCC(=O)OCc2ccc(C(=O)Oc3ccc(Cl)cc3)cc2)cc1	0.1	23%[38.3 µM]	-4	-0.6%	25%	-3	1.3
Cc1nc(=O)c(-c2ccccc2)c(C)n1CCO	1.0	-2.7%	11	-3.0%	0%	0	5.5
Cc1ccc(/C=C2/NC(=O)N(Cc3ccccc3F)C2=O)o1	0.0	14%	2	1.4%	14µM*	6	1.3
CC(Sc1nc(N)cc(N)n1)C(=O)NCCC1=CCCCC1 (configuration not stated)	-0.4	-1.0%	0	1.3%	x	-8	x
CCOC(=O)C1Cn2c(nc3c(c2=O)C(C)(CC)Cc2ccccc2-3)S1 (configuration not stated)	-0.1	-1.5%	3	28µM*	-1%	-9	-1.1
Cc1cccc(C(=O)OCC(=O)N2CCc3ccccc3C2)c1O	4.5	3.0%	4	1.2%	x	x	x
O=C(OCC(=O)c1cccs1)c1ccccc1	-0.8	-1.5%	11	-2.6%	13%	13	2.3
Cc1ccc(NC(=O)CSc2nc(C)cc(C)c2C(=O)Nc2cccc(C)c2)cc1	1.9	8.5%	13	2.5%	x	x	x
CCc1cc(C(=O)c2ccccc2OC)c(N)s1	2.2	x	-9	1.2%	0%	13	-4.6
COc1ccc(/C=C/c2nc(N)nc(-c3ccccc3O)n2)cc1OC	-0.2	-2.2%	-7	-3.2%	-1%	4	5.6
N=c1sccn1CC(=O)Nc1cccc(Oc2ccccc2)c1	2.9	5.3%	-12	-5.2%	-9%	-11	-1.2
Cc1cc(-c2ccc(C)c(S(=O)(=O)NCCc3ccc(S(N)(=O)=O)cc3)c2)on1	0.8&-0.3	0.1%&1.4%	-8&-5	-0.3%&-0.2%	13%	-5	x
O=C(CSc1ncnc2ccccc12)Nc1cccc(S(=O)(=O)N2CCOCC2)c1	0.2	-1.4%	-12	x	-6%	11	-0.3
CN(CC(=O)Nc1ccc(Cl)c(C(F)(F)F)c1)C(=O)CCCNC(=O)c1ccc(Cl)cc1	-0.2	2.8%	-4	0.8%	x	24	x
O=C(NCc1ccccc1)c1ccc(NC(=O)c2nsc3ccccc23)cc1	3.3	1.5%	-1	122%	x	x	x
Cc1ccc2nc(-c3sc4nc(C)cc(C)c4c3N)[nH]c2c1	0.3	14%	4	-19%	16%	7	1.0
CS(=O)(=O)c1ccc(-c2sc3ccccc3c2C(=O)N2CCN(c3ccc(F)cc3)CC2)cc1	0.6	1.9%	-10	-11%	x	x	x
Cc1cc(=O)oc2cc(OCCSCCN3CCCC3)ccc12	-0.3	0.3%	13	1.2%	-8%	-13	0.4
CCN(c1ccc(C)cc1C)S(=O)(=O)c1nnc(NC(=O)C(C)(C)C)s1	-1.5	u	3	0.4%	30%	-3	6.9
CC(C)(C)c1ccc(CC(=O)N2CCC2(C)C(=O)NS(=O)(=O)c2ccc(Cl)cc2)cc1 (configuration not stated)	-0.1	-0.6%	5	1.0%	x	x	x
CC(=O)c1ccc(C2CC34CNS(=O)(=O)C3CC2O4)cc1 (configuration not stated)	0.8	x	-8	x	-5%	x	-3.4
CCC(=O)N1c2ccc(S(=O)(=O)CCC(=O)NCc3ccccc3OC)cc2CC1C (configuration not stated)	-0.4	-0.6%	7	-0.9%	x	x	x
